Vif A3G: HIV-1 Vif–A3G interaction blockers – biochemical, TR-FRET, GST-Vif 1-94, biotin-A3G peptide, dose response retest, primary screen (AID 1117319); TR-FRET GST-Vif / biotin-A3G peptide binding; higher % means a stronger effect; test concentration not given here; strong numbers were not always called active; one-dose inhibition, %; IC50 in µM for titrated hits; 0.57% of 260,000 active;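 active means above the screen mean plus three standard deviations and confirmed in dose response; inconclusive means results disagree or hit not tested in dose response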;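 further: Vif residues 1-94 fused to GST binding biotinylated APOBEC3G peptide 110-148; 0% = full assay without inhibitor and 100% = GST in place of GST-Vif; retest series ran down from 100 µM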
Calb FLC: C. albicans growth modulation with fluconazole. C. albicans CaCi-2 (fluconazole-resistant clinical isolate) + fluconazole, Alamar Blue growth, 48 h. growth inhibition, % (test concentration not listed). 0.57% of 300,000 active. AID 1979;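 active means most replicates above 75%; inconclusive means exactly half above 75%; inactive means most below 75%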;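 further: all wells also contain fluconazole at 8 µg/ml as a sub-toxic cotreatment; 0% = median of DMSO wells and 100% = median of geldanamycin control wells; wells of about 8 µL received 7.5 nL stock; the first replicate is given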
HNF4A DNA FP: change in binding of human HNF4 alpha to DNA. P41235. HNF4a-FITC DNA binding, fluorescence polarization, 1 h. activity change, % at 10 µM. 0.3% of 360,000 active. AID 1224865; in the data active means activity change above about 30%, passing the limit was not always enough;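 further: controls were the assay level and a saturating level of protein; the project sought stronger binding though the title names inhibitors; some compounds called inactive have numbers as strong as hits; positive values seem to mean higher polarization but the record does not say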
Target sequence (P41235 whole entry, looked up): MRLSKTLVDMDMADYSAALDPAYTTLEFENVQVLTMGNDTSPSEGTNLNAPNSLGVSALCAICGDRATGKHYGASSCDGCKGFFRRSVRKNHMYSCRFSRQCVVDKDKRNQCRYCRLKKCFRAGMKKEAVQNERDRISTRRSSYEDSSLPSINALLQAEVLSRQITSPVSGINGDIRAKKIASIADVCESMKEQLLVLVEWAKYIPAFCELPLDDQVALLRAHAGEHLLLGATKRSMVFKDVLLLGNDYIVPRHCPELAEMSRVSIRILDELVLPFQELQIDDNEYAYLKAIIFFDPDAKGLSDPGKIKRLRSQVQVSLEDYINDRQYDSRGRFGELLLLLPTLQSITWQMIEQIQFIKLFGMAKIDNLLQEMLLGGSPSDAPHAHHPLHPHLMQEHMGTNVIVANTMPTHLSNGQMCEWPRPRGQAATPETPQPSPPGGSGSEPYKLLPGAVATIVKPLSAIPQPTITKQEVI
RanGTP-Impb inh: disruptors of Ran-importin-beta complex formation – biochemical, FRET, CFP-Ran, YFP-importin-beta, homogeneous, primary screen. cell-free CFP-Ran/YFP-importin-beta FRET ratio. 1.1% of 300,000 active. inhibition, % (concentration not given with the values);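 active means most replicates above 15%; inconclusive means exactly half above 15%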;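 further: 0% = DMSO wells and 100% = Ran loaded with GDP instead of GTP; wells of about 40 µL received 100 nL stock; the first replicate is given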
LANA-H2A inh: blocks KSHV LANA binding to histone H2A/H2B; Q9QR71; cell-free LANA-H2A/H2B peptide, fluorescence polarization; inhibition, % (test concentration not listed); 0.6% of 320,000 active; AID 2629; in the data active means inhibition mostly above about 10%, no sharp cut-off; inactive means mostly below about 6.7%;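 further: stock transfer was 7.5 nL into about 10 µL; 0% = median of vehicle wells and 100% = median of positive control wells; one replicate is shown; the record names a cut of 25% in any replicate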
B2AR ag: human beta-2 adrenergic receptor agonism by FAP. P07550. Am2.2-beta2AR cells, FAP receptor internalization, flow cytometry; reference of the scale not given here. response, % (no concentration beside the values). 0.43% of 340,000 active;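 active means response above a set limit, near 3 SD of response in nonfluorescent compounds, cut at about 42% in these data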;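 further: stock transfer was 100 nL into about 11 µL; a reference agonist was the positive control; negative values mostly stem from fluorescent compounds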
Target sequence (P07550 whole entry, looked up): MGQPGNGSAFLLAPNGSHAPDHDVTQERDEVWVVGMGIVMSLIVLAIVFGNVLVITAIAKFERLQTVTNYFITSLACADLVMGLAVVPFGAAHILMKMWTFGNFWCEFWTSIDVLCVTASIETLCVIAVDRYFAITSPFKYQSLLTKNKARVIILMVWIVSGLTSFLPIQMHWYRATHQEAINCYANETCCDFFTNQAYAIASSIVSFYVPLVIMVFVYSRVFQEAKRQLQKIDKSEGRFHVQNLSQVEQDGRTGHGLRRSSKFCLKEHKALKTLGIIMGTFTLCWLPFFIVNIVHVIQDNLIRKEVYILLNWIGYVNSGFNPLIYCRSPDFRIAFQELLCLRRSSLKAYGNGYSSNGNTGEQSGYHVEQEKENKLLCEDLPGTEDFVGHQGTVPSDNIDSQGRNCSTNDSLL
ALR inh: blocks human ALR sulfhydryl oxidase activity. purified ALR, DTT oxidation, H2O2 HRP-luminol luminescence. AID 485317. inhibition, % (no concentration beside the values). P55789. 3.8% of 290,000 active;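 active means mean and each replicate at 75% or more; inconclusive means only one of the two met; inactive means neither met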;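 further: stock transfer was 7.5 nL into about 7.5 µL; 0% = neutral wells and 100% = wells with inactivated enzyme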
Target sequence (P55789 whole entry, looked up): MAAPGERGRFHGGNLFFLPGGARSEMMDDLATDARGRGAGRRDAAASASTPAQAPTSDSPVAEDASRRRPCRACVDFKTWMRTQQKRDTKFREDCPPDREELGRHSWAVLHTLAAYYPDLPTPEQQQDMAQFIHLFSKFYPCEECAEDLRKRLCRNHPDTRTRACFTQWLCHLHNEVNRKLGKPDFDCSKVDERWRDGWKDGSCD
The depositor's hits bear a star; & = joins results of further samples; ! = repeats disagree.

How did COc1ccc(S(=O)(=O)N(CC(=O)O)c2ccc(C)cc2)cc1 do in these assays?
Vif A3G: 2%; Calb FLC: -8; HNF4A DNA FP: -0.1; RanGTP-Impb inh: inconclusive; LANA-H2A inh: 1.5; B2AR ag: -2; ALR inh: 2

Results for Cc1c(/C=N/NC(=O)C(NC(=O)c2ccc3c(c2)OCO3)C(C)C)c2ccccc2n1C (centres undefined) ?
Calb FLC: -9; HNF4A DNA FP: -3.1; RanGTP-Impb inh: 5.8; LANA-H2A inh: -2.4; B2AR ag: 0; ALR inh: -2

How did COc1ccccc1NC(=O)NCCN1C(=O)C2C3C=CC(C3)C2C1=O (centres undefined) do in these assays?
Vif A3G: 4%; Calb FLC: 0; HNF4A DNA FP: -1.4; RanGTP-Impb inh: -4.0; LANA-H2A inh: -3.8; B2AR ag: 12; ALR inh: -11

Results for CCOC(=O)N1CCN(C(=O)c2cn(C)c3ccc(S(=O)(=O)N(C)C4CCCCC4)cc3c2=O)CC1 ?
Vif A3G: 2%; Calb FLC: 4; HNF4A DNA FP: 0.6; RanGTP-Impb inh: 1.0; LANA-H2A inh: 11; B2AR ag: -7; ALR inh: -35

Results for Cc1ccc(C(=O)OC(C)C(=O)NC2CCCCC2C)cc1S(=O)(=O)N1CCOCC1 (centres undefined) ?
Vif A3G: -4%; Calb FLC: -2; HNF4A DNA FP: 3.6; RanGTP-Impb inh: -3.5; LANA-H2A inh: 0.7; B2AR ag: 6; ALR inh: -5

How did O=C1NC(=O)/C(=C\c2cn(Cc3ccccc3F)c3ccccc23)N1 do in these assays?
Vif A3G: 9%; Calb FLC: -8; HNF4A DNA FP: 2.0; RanGTP-Impb inh: -0.6; LANA-H2A inh: 1.9; B2AR ag: 6; ALR inh: 3

Results for O=C(Cn1sc2ccccc2c1=O)N1CCN(C(=O)c2ccco2)CC1 ?
Calb FLC: -4; HNF4A DNA FP: 3.7; RanGTP-Impb inh: 3.2; LANA-H2A inh: -2.5; B2AR ag: 1; ALR inh: -3

How did CC(=O)NC(CC(=O)NCCN1C(=O)S/C(=C\c2ccccc2)C1=O)c1ccccc1 (centres undefined) do in these assays?
Vif A3G: inconclusive; Calb FLC: inconclusive; HNF4A DNA FP: 1.2; RanGTP-Impb inh: 1.5; LANA-H2A inh: -2.6; B2AR ag: -7; ALR inh: -4

Results for CC(C)CN(C(=O)c1cc(=O)[nH]c2ccccc12)c1c(N)n(Cc2ccccc2)c(=O)[nH]c1=O ?
Vif A3G: 1%; HNF4A DNA FP: 3.2; RanGTP-Impb inh: 5.2; LANA-H2A inh: 4.9; B2AR ag: -3; ALR inh: -15

Results for O=C(CSc1oc(-c2ccco2)nc1S(=O)(=O)c1ccccc1)NCC1CCCO1 (centres undefined) ?
Vif A3G: 13%; Calb FLC: -1; HNF4A DNA FP: 3.0; RanGTP-Impb inh: 8.0; LANA-H2A inh: -0.4; B2AR ag: 7; ALR inh: 1

What do the screens show for `O=C(CSc1nnnn1-c1ccc2c(c1)CCC2)Nc1ccc2c(c1)OCCO2`?
Vif A3G: 44%; Calb FLC: -6; HNF4A DNA FP: 0.1; RanGTP-Impb inh: -1.9; LANA-H2A inh: 3.5; B2AR ag: 3; ALR inh: -26

How did CCC1CCCCN1S(=O)(=O)c1ccc2c(c1)CCN2C(=O)C1CCC1 (centres undefined) do in these assays?
Vif A3G: -2%; Calb FLC: 2; HNF4A DNA FP: 7.2; RanGTP-Impb inh: 3.8; LANA-H2A inh: -0.6; B2AR ag: -12; ALR inh: 1

How did Cc1ccccc1NC(=O)c1ccc2nccnc2c1 do in these assays?
Calb FLC: 2; HNF4A DNA FP: 1.4; RanGTP-Impb inh: 2.7; LANA-H2A inh: 3.9; B2AR ag: 4; ALR inh: -3

What do the screens show for `C[c-]1[c-](C)[c-](C)[c-](C)[c-]1C.[Fe].c1cc2nccc(N3CCCC3)[c-]2c1` (centres undefined)?
Vif A3G: 2µM*!; Calb FLC: 21; HNF4A DNA FP: -43&-48; RanGTP-Impb inh: -0.7; LANA-H2A inh: -1.5&-0.5; B2AR ag: 19&19; ALR inh: 94*

What do the screens show for `Cc1cccc(/C(N)=N/OC(=O)c2ccccc2Cl)c1`?
Vif A3G: 1%; Calb FLC: -24; HNF4A DNA FP: 2.6; RanGTP-Impb inh: -1.3; LANA-H2A inh: 1.1; B2AR ag: 4

What do the screens show for `Cc1ccc(Nc2nc(N)[nH]c(=O)c2N=O)cc1`?
Vif A3G: 9%; Calb FLC: -5; HNF4A DNA FP: -3.6; RanGTP-Impb inh: 29*; LANA-H2A inh: -4.5; B2AR ag: 0; ALR inh: 1

What do the screens show for `O=C(NNC(=S)Nc1ccccc1Cl)c1ccncc1`?
Vif A3G: 13%; Calb FLC: 3; HNF4A DNA FP: 5.2; RanGTP-Impb inh: 1.9; LANA-H2A inh: -5.9; B2AR ag: -12; ALR inh: 49

What do the screens show for `Cn1c(SCC(=O)N2CCOCC2)nnc1-c1ccco1`?
Vif A3G: -6%; Calb FLC: -1; HNF4A DNA FP: 1.0; RanGTP-Impb inh: 1.0; LANA-H2A inh: -0.3; B2AR ag: -7; ALR inh: -3

What do the screens show for `COc1cc(C2NCCC(=O)C2(C)C)cc(OC)c1OC` (centres undefined)?
Vif A3G: -3%; Calb FLC: 1; HNF4A DNA FP: -0.3; RanGTP-Impb inh: 1.4; LANA-H2A inh: -3.9; B2AR ag: 6; ALR inh: -5

How did CCN1CCN(C(=O)Cn2nc(C)c3sc4ccccc4c3c2=O)CC1 do in these assays?
Vif A3G: -1%; Calb FLC: -4; HNF4A DNA FP: 0.7; RanGTP-Impb inh: 0.2; LANA-H2A inh: 3.7; B2AR ag: -1; ALR inh: 0

Quoted at random: 3 entries already listed
Results for Cc1c(/C=N/NC(=O)C(NC(=O)c2ccc3c(c2)OCO3)C(C)C)c2ccccc2n1C (centres undefined) ?
Calb FLC: -9; HNF4A DNA FP: -3.1; RanGTP-Impb inh: 5.8; LANA-H2A inh: -2.4; B2AR ag: 0; ALR inh: -2

What do the screens show for `Cc1cccc(/C(N)=N/OC(=O)c2ccccc2Cl)c1`?
Vif A3G: 1%; Calb FLC: -24; HNF4A DNA FP: 2.6; RanGTP-Impb inh: -1.3; LANA-H2A inh: 1.1; B2AR ag: 4

Results for O=C(Cn1sc2ccccc2c1=O)N1CCN(C(=O)c2ccco2)CC1 ?
Calb FLC: -4; HNF4A DNA FP: 3.7; RanGTP-Impb inh: 3.2; LANA-H2A inh: -2.5; B2AR ag: 1; ALR inh: -3

Additional results.
What do the screens show for `CCCc1nnc(NC(=O)CCC(=O)N2CCN(Cc3ccc(OC)c(F)c3)CC2)s1`?
Calb FLC: -4; HNF4A DNA FP: -2.1; RanGTP-Impb inh: 2.2; LANA-H2A inh: -3.8; B2AR ag: 3; ALR inh: -2

What do the screens show for `Cc1ccc(C(=O)OC(C)C(=O)c2cc(C)c(C)cc2C)o1` (centres undefined)?
Vif A3G: 5%; Calb FLC: -5; HNF4A DNA FP: -0.2; RanGTP-Impb inh: 1.7; LANA-H2A inh: 0.4; B2AR ag: 3; ALR inh: 34

How did CC1(C)Cc2c(ccc3ccccc23)/C(=C/C(=O)N2CCCCC2)N1 do in these assays?
Vif A3G: 11%; Calb FLC: 0; HNF4A DNA FP: 0.5; RanGTP-Impb inh: 2.2; LANA-H2A inh: -1.2; B2AR ag: -6

Results for Cc1nn(-c2ccccc2)c(Cl)c1C(=O)OC(C)C(=O)Nc1ccc2c(c1)OCO2 (centres undefined) ?
Vif A3G: 4%; Calb FLC: 3; HNF4A DNA FP: -1.3; RanGTP-Impb inh: 0.3; LANA-H2A inh: -5.2; B2AR ag: 5; ALR inh: 1

How did COc1ccc2c3c([nH]c2c1)C1CC2C(CC(O)C(OC)C2CO)CN1CC3 (centres undefined) do in these assays?
Vif A3G: 10%; Calb FLC: 0; HNF4A DNA FP: 12; RanGTP-Impb inh: 0.8; LANA-H2A inh: 8.8; B2AR ag: 0; ALR inh: 5

What do the screens show for `Cc1c(NC(=O)C(C)OC(=O)CCc2c[nH]c3ccccc23)c(=O)n(-c2ccccc2)n1C` (centres undefined)?
Calb FLC: 6; HNF4A DNA FP: -4.0; LANA-H2A inh: -8.6; B2AR ag: -15; ALR inh: -12

Results for Nc1ncnc2[nH]c(=S)[nH]c12 ?
Vif A3G: 2%; HNF4A DNA FP: -1.9; B2AR ag: -4

How did O=C(CCC(=O)c1cccs1)Nc1ncccc1O do in these assays?
Vif A3G: 11%; Calb FLC: -3; HNF4A DNA FP: 5.5; RanGTP-Impb inh: 0.6; LANA-H2A inh: -1.8; B2AR ag: 7; ALR inh: -7

Results for CC(C)CC(=O)Nc1c2c(nn1-c1ccc([N+](=O)[O-])cc1)CS(=O)(=O)C2 ?
Vif A3G: 9%; Calb FLC: -5; HNF4A DNA FP: -3.6; RanGTP-Impb inh: -0.8; LANA-H2A inh: -1.9; B2AR ag: -5; ALR inh: -1

What do the screens show for `O=C(CSC1=NS(=O)(=O)c2cc(Cl)ccc2N1)Nc1ccccc1F`?
Vif A3G: -1%; Calb FLC: 5; HNF4A DNA FP: -2.3; RanGTP-Impb inh: 0.2; B2AR ag: -2

Results for COc1ccc(/C=C2/N=C3CCCCCN3C2=O)cc1 ?
Vif A3G: 5%; Calb FLC: 1; HNF4A DNA FP: -1.2; RanGTP-Impb inh: 1.5; LANA-H2A inh: -4.9; B2AR ag: -2; ALR inh: -2

How did CC1(C(=O)NCCN2CCOCC2)C=CCN1C(=O)c1ccccc1 (centres undefined) do in these assays?
Vif A3G: -4%; Calb FLC: -3; HNF4A DNA FP: -1.9; RanGTP-Impb inh: -2.3; LANA-H2A inh: -5.0; B2AR ag: -1; ALR inh: 5

Results for COc1ccc(CC(=O)NCc2ccc(F)cc2)cc1S(=O)(=O)N1CCOCC1 ?
Vif A3G: 1%; HNF4A DNA FP: -0.9; LANA-H2A inh: 2.1; B2AR ag: 1; ALR inh: -2

Results for CCC(NC(=O)c1oc2ccccc2c1COC)c1ccc(OC)cc1 (centres undefined) ?
Vif A3G: 6%; Calb FLC: 1; HNF4A DNA FP: 3.0; RanGTP-Impb inh: -2.3; LANA-H2A inh: 4.2; B2AR ag: -14; ALR inh: -26

What do the screens show for `Cc1ccc(N(CCC#N)C(=O)CN2C(=O)NC(Cc3ccccc3)C2=O)cc1` (centres undefined)?
Vif A3G: -4%; Calb FLC: -2; HNF4A DNA FP: 4.2; RanGTP-Impb inh: inconclusive; LANA-H2A inh: -3.4; B2AR ag: 2

How did CCCCn1c(N)c(N(CCC(C)C)C(=O)Cc2ccc(S(=O)(=O)N3CCOCC3)s2)c(=O)[nH]c1=O do in these assays?
Vif A3G: 12%; Calb FLC: 8; HNF4A DNA FP: 4.5; RanGTP-Impb inh: 3.4; LANA-H2A inh: 0.0; B2AR ag: 20; ALR inh: -6

What do the screens show for `CCOC(=O)C1C(=O)CC(C)(O)C(C(=O)OCC)C1c1ccc(N(CC)CC)cc1` (centres undefined)?
Vif A3G: 9%; Calb FLC: -5; HNF4A DNA FP: -2.1; RanGTP-Impb inh: -3.7; LANA-H2A inh: -0.3; B2AR ag: 0; ALR inh: 98*

How did COc1ccccc1NC(=O)CNC(=O)Cn1c(C)cc2ccccc2c1=O do in these assays?
Calb FLC: 31; HNF4A DNA FP: -1.2; RanGTP-Impb inh: 3.7; LANA-H2A inh: -15; B2AR ag: 3; ALR inh: -1

How did COc1ccc(Cc2nn3c(Cn4nnc5ccccc54)nnc3s2)cc1 do in these assays?
Vif A3G: inconclusive; Calb FLC: -10; HNF4A DNA FP: -1.1; RanGTP-Impb inh: -1.3; LANA-H2A inh: 2.6; B2AR ag: -7; ALR inh: 5
